From PubChem BioAssay
HIV Env fusion: inhibitors of HIV-1 Env-driven cell-cell fusion, primary screen, HeLa-JRFL effector, CEM21 target cells, luciferase | inhibition, % at 12.3 µM | 1.1% of 360,000 active | AID 651610, 2012;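 active = mean replicate inhibition score of at least 50 and every replicate individually at or above 50; inconclusive = only one of the two criteria met; inactive = mean below 50 and not all replicates reaching 50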;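 also: 0% = plate neutral controls and 100% = maraviroc near 300 nM; one replicate is shown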
PABP FP inh: PABP poly(A) RNA binding inhibitors, primary screen, biochemical, fluorescence polarization, uHTS; Polyadenylate-binding protein 1 (Homo sapiens), P11940; inhibition, % at 35 µM; 1% of 290,000 active; AID 2014, 2009;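 active = 50% or more with normal probe brightness, or confirmed in later tests; inconclusive = above 50% with abnormal brightness, or retests that disagree; inactive = below 50% or failed in later tests; about a fifth of its hits are not listed in these tables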;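 also: calls also rest on retests at 20 µM and on dose response follow-up; controls were probe without protein and protein plus probe with vehicle; some compounds called inactive have numbers as strong as hits; many hits fall short of the cut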
Target sequence (P11940 whole entry, looked up): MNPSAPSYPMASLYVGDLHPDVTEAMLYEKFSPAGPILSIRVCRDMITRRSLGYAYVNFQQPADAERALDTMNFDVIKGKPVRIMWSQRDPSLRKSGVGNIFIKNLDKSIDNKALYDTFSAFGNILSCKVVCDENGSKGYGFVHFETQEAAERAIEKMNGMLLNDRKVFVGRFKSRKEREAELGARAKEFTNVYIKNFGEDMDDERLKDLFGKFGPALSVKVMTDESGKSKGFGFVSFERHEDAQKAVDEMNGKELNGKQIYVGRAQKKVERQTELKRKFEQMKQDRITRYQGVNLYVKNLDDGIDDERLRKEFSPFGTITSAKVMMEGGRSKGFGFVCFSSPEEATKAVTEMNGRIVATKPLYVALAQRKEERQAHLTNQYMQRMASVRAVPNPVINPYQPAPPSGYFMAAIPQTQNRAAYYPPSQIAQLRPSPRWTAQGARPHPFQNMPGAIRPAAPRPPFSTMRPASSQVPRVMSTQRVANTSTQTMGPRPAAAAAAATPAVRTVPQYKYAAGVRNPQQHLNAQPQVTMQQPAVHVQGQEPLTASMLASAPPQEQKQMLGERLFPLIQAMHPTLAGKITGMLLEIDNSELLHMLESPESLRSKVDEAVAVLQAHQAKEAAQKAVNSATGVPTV
eIF4H FP inh: human eIF4H binding inhibitors, primary screen, translation initiation inhibitor project, biochemical, uHTS, fluorescence polarization | eIF4H fluorescence polarization binding assay | inhibition, % at 35 µM | 0.94% of 290,000 active | AID 2012, 2009;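 active = 50% or more with normal probe brightness, or confirmed in later tests; inconclusive = above 50% with abnormal brightness, or retests that disagree; inactive = below 50% or failed in later tests; about a fifth of its hits are not listed in these tables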;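 also: calls also rest on retests at 20 µM and on dose response follow-up; 0% = protein and probe with vehicle and 100% = probe without protein; strong numbers were not always called active; many hits fall short of the cut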
CSC inhib: cancer stem cell viability inhibitors, primary screen, luminescence | cancer stem cell-like cells viability | inhibition, % at 7.5 µM | 1.1% of 300,000 active | AID 2717, 2010;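 active = mean at 75% or more and at least half the replicates too; inconclusive = mean and replicates disagree; tested in HMLE shEcad cells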;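 also: 0% = median of negative and 100% = median of positive control wells; the first replicate is given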
UUG fidelity: modulators of yeast start codon fidelity, primary screen, whole organism, S. cerevisiae, single point, plate reader | S. cerevisiae UUG-firefly luciferase reporter, luminescence/redox ratio | activity score, % at 18.7 µM | 0.13% of 350,000 active | AID 602363, 2012;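 active = replicate mean at a twofold rise or more, about +100% in these data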;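 also: firefly luciferase made from a UUG start codon reports start codon fidelity; reporter light over untreated wells divided by growth signal over untreated wells; some hits fall short of that in this replicate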
MT1-MMP act inh: blockers of MT1-MMP proenzyme processing, primary screen, HT1080 RFP-PRO-GFP cells, GFP/RFP fluorescence; Matrix metalloproteinase-14 (Homo sapiens), P50281; GFP/RFP ratio fluorescence, overnight; percent of plate control window, DMSO zero; GFP/RFP ratio change, % at 20 µM; 0.061% of 360,000 active; AID 651647, 2012;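 active = GFP/RFP ratio change of at least 30% with cell ATP level not reduced by more than half and red fluorescence within 50% of control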; also: strong numbers were not always called active
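Material – HT1080 RFP-PRO-GFP cells · Control set – DMSO wells and RFP-L50D-GFP cells · Incubation – overnight cell settling, then overnight compound exposure, 37 °C, 5% CO2 · Compound dosing – single-point 20 µM compound, 1% DMSO · Read-out – GFP/RFP fluorescence ratio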
Rce1 inh: yeast Rce1p protease inhibitors, primary screen, biochemical, fluorescence, cell-free homogeneous | yeast membranes, quenched prenylated peptide cleavage fluorescence | 0.27% of 290,000 active | calls only | CAAX prenyl protease 2 (Saccharomyces cerevisiae (strain ATCC 204508 / S288c)), Q03530 | AID 2563, 2010;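 active = fall in fluorescence gain of 50% or more versus controls, with final raw signal at or below 3038400; inconclusive = same 50% fall but final raw signal above 3038400; inactive = fall in fluorescence gain under 50%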;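 also: plate controls were neutral control wells for no effect and wells lacking membranes for full effect; tested at 10 µM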
Target sequence (Q03530 whole entry, looked up): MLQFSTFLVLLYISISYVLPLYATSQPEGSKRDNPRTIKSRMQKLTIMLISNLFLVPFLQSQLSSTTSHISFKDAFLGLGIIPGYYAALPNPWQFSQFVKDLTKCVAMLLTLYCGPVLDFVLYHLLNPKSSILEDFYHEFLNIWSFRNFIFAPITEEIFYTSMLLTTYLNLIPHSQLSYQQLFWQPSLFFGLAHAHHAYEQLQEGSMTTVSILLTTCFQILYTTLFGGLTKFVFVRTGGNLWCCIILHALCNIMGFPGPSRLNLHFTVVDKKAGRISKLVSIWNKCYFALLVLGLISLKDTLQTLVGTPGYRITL
MT1-MMP act inh RFP: second read-out of MT1-MMP act inh, no call of its own (marks repeat the call); RFP signal change, %; measured here: RFP expression control read;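 0 = vehicle wells; hits needed this value within 50% of zero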
Numbers without * were called inactive; i = inactive; ? = inconclusive; nt = no result given. Not all compounds are listed; the hit share may differ from the screen's.

#	Molecule	HIV Env fusion	PABP FP inh	eIF4H FP inh	CSC inhib	UUG fidelity	MT1-MMP act inh	MT1-MMP act inh RFP	Rce1 inh
1	O=C(c1cc(C2CC2)nn1-c1ccccc1)N1CCN(S(=O)(=O)c2cccc(F)c2)CC1	nt	nt	nt	6	-10	-1	-6	nt
2	CCC(=O)N1CCCc2cc(S(=O)(=O)N3CCC(N4CCCCC4)CC3)ccc21	nt	5	-10	18	-4	2	6	i
3	Brc1ccc(OCCCN2CCOCC2)cc1	nt	14	3	-6	nt	1	0	i
4	Cc1ccc(CCC(=O)Nc2ccc(C)c(C)c2)o1	-13	nt	nt	-8	nt	0	3	i
5	O=C(NCc1ccccc1OC(F)(F)F)C1CCC(=O)N(CCc2ccccn2)C1 (centres undefined)	-18	-1	-1	-2	-13	0	0	i
6	CC(=O)n1c2c(c3ccccc31)OC(N)=C(C#N)C2c1cccc(Cl)c1Cl (centres undefined)	-20	4	45	76*	nt	-9	-5	i
7	CCC(C)(C)NC(=O)C(c1cccn1C)N(Cc1ccccc1)C(=O)Cn1nnc2ccccc21 (centres undefined)	nt	-3	5	nt	-13	-7	-6	i
8	O=S1(=O)N=C(SCCO)c2ccccc21	nt	27	6	-9	-11	-3	-1	i
9	COc1ccccc1C1C(C(C)=O)=C(O)C(=O)N1CCc1ccccc1 (centres undefined)	17	5	26	-13	nt	1	1	i
10	CC1CCN(S(=O)(=O)c2cccc(C(=O)NC3CCS(=O)(=O)C3)c2)CC1 (centres undefined)	10	nt	nt	nt	-16	0	-3	nt
11	O=C(Cc1ccccc1Cl)Nc1cc(S(=O)(=O)N2CCOCC2)ccc1N1CCOCC1	3	nt	nt	nt	5	-1	1	nt
12	OCCNc1ccc(Cl)cc1	nt	-1	-14	-10	-11	6	4	i
13	Cc1ccc(S(=O)(=O)NCC(=O)N(CC2CCCO2)C(C(=O)NCC2CCCO2)C(C)C)cc1 (centres undefined)	8	-7	0	nt	-5	0	0	i
14	Cc1ccc(OCC(=O)Nc2ccc(Cl)cc2)c(-n2nc3ccccc3n2)c1	nt	-2	10	17	-10	5	-6	i
15	CC(=O)C(=[N+]=[N-])C(=O)NCc1ccccc1	nt	10	-5	-6	1	14	12	i
16	COc1cc2c(cc1OC)C(C)N(S(=O)(=O)c1cccs1)CC2 (centres undefined)	-36	5	1	-11	-12	3	-1	i
17	O=C(N/N=C/c1c[nH]c2ccccc12)c1cccs1	-18	4	9	7	2	9	2	i
18	COc1cc([N+](=O)[O-])ccc1NC(=O)Nc1nc2c(s1)CCCC2	-6	-9	-14	nt	nt	1	2	i
19	O=S(=O)(O)c1cnccc1Nc1cccc(C(F)(F)F)c1	-2	nt	nt	-1	-1	4	5	i
20	CN(c1cccnc1)c1ncnc2[nH]ncc12	-6	0	-2	-10	-25	3	6	i
21	COc1ccc([N+](=O)[O-])cc1NC(=O)Nc1cccc(Cl)c1	44	6	-4	4	nt	-9	-15	i
22	O=C(NCc1ccco1)c1ccc(CS(=O)Cc2ccc(Cl)cc2)o1 (centres undefined)	-3	-1	-8	-14	-14	0	0	i
23	Cc1csc(NC(=O)CCN2C(=O)c3ccccc3S2(=O)=O)n1	nt	2	2	1	-11	-3	3	i
24	NC(CO)c1csc(Nc2ccc(C(F)(F)F)cn2)n1 (centres undefined)	-11	nt	nt	nt	-11	-5	3	nt
25	O=C(CSc1ccc(Br)cc1)Nc1ccccc1N1CCOCC1	35	9	5	-3	0	0	2	i
26	O=C(/C=C/c1ccc(Cl)cc1)NCc1cccs1	nt	-6	3	-12	-10	nt	nt	i
27	CC(=O)Nc1sc(C)c(C)c1CN1CCN(S(=O)(=O)c2ccccc2)CC1	nt	11	-3	-6	3	-7	-1	i
28	COc1ccccc1NC(=O)c1ccc(NC(=O)c2cc3c(s2)CCC3)cc1	?	25	-7	-9	nt	-1	-13	i
29	COC(=O)c1oc2ccc(Br)cc2c1NC(=O)CCN1CCOCC1	-6	6	-5	-6	0	-3	2	i
30	CN(C)c1ccc(/C=N/NC(=O)CSc2ccccn2)cc1	-13	-1	-7	-4	-12	2	3	i
31	Cc1cc(C)nc(SCc2nnc(SCC(=O)N3CCCc4ccccc43)o2)n1	nt	-3	-6	-4	-10	9	3	nt
32	Cn1c(=O)n(C)c2cc(N3CCCCC3)c(NC(=O)c3cccc(Cl)c3)cc21	-6	-1	-9	31	-20	-6	-8	i
33	CC(=O)C1=C(O)C(=O)N(Cc2cccnc2)C1c1ccc(C(C)C)cc1 (centres undefined)	7	-4	-6	-15	-22	4	-3	i
34	CC(=O)Nc1nc2ccc(S(=O)(=O)N3CCCCC3)cc2s1	3	-13	0	0	-21	0	1	i
35	COc1ccccc1-c1cn[nH]c1-c1ccc(OCc2ccc([N+](=O)[O-])cc2)cc1O	-187	8	-4	18	-9	5	-2	i
36	COc1ccc(C(=O)NCCN2CCCC2)cc1	7	10	4	-12	-23	2	1	i
37	CCOc1ccc(CCNS(=O)(=O)c2ccc(-c3ccc(=O)[nH]n3)o2)cc1OCC	36	-10	-8	-16	18	-2	-2	i
38	Cn1c(=O)oc2cc(S(=O)(=O)NC3CCCc4ccccc43)ccc21 (centres undefined)	8	-5	-6	-11	-13	6	-2	i
39	COc1ccc(S(=O)(=O)N2CCOC2CNC(=O)C(=O)NCc2ccco2)cc1 (centres undefined)	-31	5	-1	1	1	-3	-4	i
40	CCOc1ccc(CCNC(=O)C2CCCN(c3nnc(-n4cccc4)s3)C2)cc1OCC (centres undefined)	nt	-9	-4	-3	-13	7	2	i
41	CCOC(=O)/C(C#N)=C/Nc1cc(OC)ccc1OC	-24	11	-4	-5	nt	0	1	i
42	O=C(CN(C(=O)Cn1nnc(-c2ccc(F)cc2)n1)c1ccc(F)c(Cl)c1)NCC1CCCO1 (centres undefined)	0	1	8	-1	nt	3	-1	i
43	Cc1ccccc1-c1nc(CN2CCC(C(=O)NCC3CCCO3)CC2)c(C)o1 (centres undefined)	-20	0	-6	-13	-8	3	-1	i
44	COc1ccc(-c2nnc(-c3cccnc3)o2)cc1OC	-74	-2	-6	-9	-19	5	3	i
45	Fc1ccc2[nH]c3c(N4CCN(C5CCCCC5)CC4)ncnc3c2c1	nt	3	-4	-5	nt	nt	nt	i
46	CN(Cc1ccccc1)c1nnc(N)s1	-15	-12	4	-16	1	1	3	i
47	Cc1[nH]n(-c2ccccc2)c(=O)c1N=Nc1ccc2c(c1)OCCO2	-63	5	-12	-3	nt	7	2	nt
48	CC1(C)CC(=O)C2=C(C1)N=C1SCCC(=O)N1C2c1ccc(C(F)(F)F)cc1 (centres undefined)	?	-4	-3	-4	-11	nt	nt	i
49	CCn1cc(/C=N/NS(=O)(=O)c2ccc(C)cc2)c(C)n1	nt	-11	-13	-11	-9	1	0	i
50	COc1cccc(NC(=O)c2ccc(NS(=O)(=O)c3cccs3)cc2)c1	8	nt	nt	nt	-8	-2	0	nt

(listing goes on)
#	Molecule	HIV Env fusion	PABP FP inh	eIF4H FP inh	CSC inhib	UUG fidelity	MT1-MMP act inh	MT1-MMP act inh RFP	Rce1 inh
51	Cc1cnc(C(=O)OCc2ccc(COC(=O)c3cnc(C)cn3)cc2)cn1	9	-5	31	-4	-5	2	1	i
52	CC(C)(C)c1cc(C(=O)N/N=C/c2cc3c(cc2Br)OCO3)n[nH]1	-5	-6	6	27	nt	7	0	i
53	CSCCC(NS(=O)(=O)c1ccc(C)cc1)C(=O)N1CCCCCCC1 (centres undefined)	16	nt	nt	nt	6	-3	2	nt
54	Cc1ccccc1C(=O)Nc1ccc(C(=O)N/N=C/c2ccncc2)cc1	8	-2	1	-14	nt	-1	1	i
55	O=C(CN(C1CCCCC1)S(=O)(=O)c1ccc(F)cc1)NCCCO	nt	0	-3	nt	17	1	4	nt
56	COC(=O)[C@H](Cc1c[nH]c2ccccc12)NC(=O)NCc1ccc(OC)c(OC)c1	18	0	5	-5	-1	0	-4	i
57	COC(=O)c1sc(NC(=O)CSc2n[nH]c(N)n2)c(C(=O)OC)c1C	-5	-3	-2	-10	nt	2	0	i
58	O=C(c1coc2ccc(O)cc12)C1CC1	nt	5	-2	3	4	4	3	i
59	Cc1ccc(-c2noc(=O)n2CC(=O)Nc2ccc(S(=O)(=O)NC3CC3)cc2)cc1	nt	-3	-5	0	-4	-10	1	i
60	Cc1ccccc1-c1nnc(Cc2ccccc2)o1	-28	1	-10	nt	nt	2	4	i
61	Cc1ccc(NC(=O)c2c(C(F)(F)F)nn(C)c2Cl)cc1C	-58	-6	-6	0	-12	5	5	i
62	Cc1cccc(-n2c(C)cc(C)c(C#N)c2=O)c1	7	-2	-4	-6	nt	-2	0	nt
63	CSc1ncc2c(=O)[nH]c(-c3ccccc3)nc2n1	-14	2	8	-18	-23	-6	4	i
64	CCC(=O)c1ccc(N2CCN(C(=O)c3ccc(F)cc3)CC2)c(F)c1	11	26	-6	-6	-3	-1	-2	i
65	Cc1ccc(NC(=O)c2cc3ccccc3o2)nc1	nt	nt	nt	8	nt	-3	2	i
66	COc1cc(NC(=O)COn2nnc3ccc(S(C)(=O)=O)cc32)cc(OC)c1	6	10	2	-5	-4	-1	-3	i
67	CCOc1ccc(C2NC(=O)NC(C)=C2C(=O)OC)cc1C (centres undefined)	nt	4	-8	-8	-2	1	-3	i
68	O=C(NCN1CCc2ccccc2C1)c1cnccn1	nt	-5	-1	8	-17	-4	4	i
69	O=C(c1cc(-c2ccc(O)cc2)on1)N1CCCc2ccccc21	-10	7	-10	48	-32	-1	-3	i
70	Nc1nc(N2CCOCC2)n[nH]1	-11	8	3	nt	nt	1	5	nt
71	CCc1ccc(NC(=O)c2ccc3ncsc3c2)cc1	nt	11	-2	nt	nt	nt	nt	i
72	COC(=O)c1cc(OC)c(OC)cc1NC(=S)N1CCN(C/C=C/c2ccccc2)CC1	1	-5	-8	-3	-21	-1	-5	i
73	COC(=O)Cc1ccc(OC(=O)CCS(=O)(=O)c2ccc(Cl)cc2)cc1	-18	nt	nt	-4	nt	0	1	i
74	COC(=O)CSCC(=O)Nc1nnc(-c2cccc(C)c2)s1	15	3	-3	-8	nt	1	5	i
75	COc1ccc(/C=C/C(=O)N2CCN(c3ccccn3)CC2)cc1	-5	-4	7	-11	-22	-2	1	i
76	CC1(C)c2[nH]c3ccccc3c2C[C@@H]2C(=O)N(Cc3ccco3)C(=O)N21	-12	nt	nt	0	-9	1	1	i
77	CCCc1nc(-c2cc3ccc(C)cc3[nH]c2=O)no1	-52	-1	0	-9	-6	2	1	i
78	C/C(=N\O)C1CCCCC1	nt	-3	-4	-6	nt	nt	nt	i
79	Cc1cccc(N2C(=O)CC(Sc3nc(C)c4c(n3)CCCC4)C2=O)c1 (centres undefined)	-29	-3	-4	-7	-4	3	3	i
80	NNC(=O)c1ccc2[nH]c3c(c2c1)CCCC3	16	-7	2	nt	nt	3	5	i
